Menin-MLL FL inh: qHTS Assay for Inhibitors Targeting the Menin-MLL Interaction in MLL Related Leukemias: Competition With Fluorescein Labeled MLL-derived Peptide; FP activity change, % at 61.4 µM; Fluorescence polarization, fluorescein-MLL peptide displacement from menin; 290,000 tested, under 10 active; inconclusive = falling polarisation curve, or a change in total fluorescence; inactive = total fluorescence flat and polarisation flat or rising; no compound was filed as active; the % refers to the polarisation; negative = inhibition;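 further: % of control where 0% means no effect; inhibitors lower the polarisation; unlabelled MLL peptide was the positive control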
Sfp inh: qHTS Assay for Inhibitors of Bacillus subtilis Sfp phosphopantetheinyl transferase (PPTase); Potency, µM, for the others: max response, negative = inhibition, hits mostly inhibitors; AID 1490, 2009; 310,000 tested, 3.5% active; Biochemical Sfp PPTase activity, qHTS; 4'-phosphopantetheinyl transferase ffp (Bacillus subtilis), Q9F4F7; active means well fitted inhibition curve with a large enough effect; inconclusive means small, poorly fitted or top-dose-only effect, or another doubt; inactive means no such curve, though single readings can be large or run the other way;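 further: the enzyme is Sfp with the accession as filed and its product quenches rhodamine fluorescence; potency means the concentration at half of the fitted maximal effect; 0% = enzyme reaction without inhibitor and -100% = no enzyme wells; top concentration of the series not given in the record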
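Fluorescence-quenching assay: 15 nM Sfp-PPTase preincubated 15 min at room temperature with compound, then 5 uM rhodamine-CoA and 12.5 uM BHQ-2-labelled YbbR peptide added. Fluorescence (ex 525/em 598 nm) read at start and after 30 min; difference gives rate.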
TRPML1 inh: qHTS for Inhibitors of the Human Mucolipin Transient Receptor Potential 1 (TRPML1). Mucolipin-1 (Homo sapiens), Q9GZU1. AID 624415, 2012. activity change, negative = inhibition, % (concentration not given with the values). 390,000 tested, 0.02% active. TRPML1-inducible cells, Ca2+ dye fluorescence, FDSS; hits give low values; inhibition of EC80 agonist-evoked calcium signal; in the data active means activity change below about -50%; inconclusive means about -30% to -50%; inactive means above about -30%;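 further: stimulus is agonist 54-4 at its EC80 concentration; on the % scale 0 is the no-effect control and ±100 the full control effect; compound concentration not given in the record; the text of the record puts the active cut at -80%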
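Calcium fluorescence in TRPML1-DL cells induced overnight with Tet: a 110 s read after compound pin addition, then a 110 s antagonist read after challenge with 54-4 at 4 uM final (EC80).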
gsp agonist: qHTS for Agonist of gsp, the Etiologic Mutation Responsible for Fibrous Dysplasia/McCune-Albright Syndrome: qHTS. AID 624287, 2012. Potency, µM (highest dose often 76.9 µM), without a hit: top-dose activation (cAMP increase), usual class: activators. 340,000 tested, 0.13% active. gsp mutant cells, cAMP HTRF, 30 min; control for the full effect not named in the record; active = well fitted activation curve with a large enough effect; inconclusive = small, poorly fitted or top-dose-only effect, or another doubt; inactive = no such curve, though single readings can be large or run the other way; cell line not stated here;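 further: phosphodiesterase inhibitor Ro 20-1724 added with compounds to block cAMP breakdown; potency means the concentration at half of the fitted maximal effect; nearly all actives have a fitted effect of over 60% in size; about a fifth of the inactives were tested at one dose only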
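Cells stably selected in G418 were plated at 2000/well, grown 16-24 hr, then given compounds in DMSO with the PDE inhibitor […] (300 uM solution added) for 30 min at 37C; cAMP was read by HTRF.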
TRPV1 potentiator: HTS Assay for Compounds that Act as Potentiators of the Vanilloid Receptor 1; 320,000 tested, 0.02% active; Transient receptor potential cation channel subfamily V member 1 (Homo sapiens), Q8NER1; potentiation, % at 8.33 µM; TRPV1-expressing cells, Fluo-8 calcium influx, capsaicin EC20 potentiation; host cell line not named in the record; control for the full effect not named in the record; active means potentiation above 80%; inconclusive means 30% to 80%; inactive means below 30%; further: 0% is about no effect
Target sequence (Q8NER1 whole entry, looked up): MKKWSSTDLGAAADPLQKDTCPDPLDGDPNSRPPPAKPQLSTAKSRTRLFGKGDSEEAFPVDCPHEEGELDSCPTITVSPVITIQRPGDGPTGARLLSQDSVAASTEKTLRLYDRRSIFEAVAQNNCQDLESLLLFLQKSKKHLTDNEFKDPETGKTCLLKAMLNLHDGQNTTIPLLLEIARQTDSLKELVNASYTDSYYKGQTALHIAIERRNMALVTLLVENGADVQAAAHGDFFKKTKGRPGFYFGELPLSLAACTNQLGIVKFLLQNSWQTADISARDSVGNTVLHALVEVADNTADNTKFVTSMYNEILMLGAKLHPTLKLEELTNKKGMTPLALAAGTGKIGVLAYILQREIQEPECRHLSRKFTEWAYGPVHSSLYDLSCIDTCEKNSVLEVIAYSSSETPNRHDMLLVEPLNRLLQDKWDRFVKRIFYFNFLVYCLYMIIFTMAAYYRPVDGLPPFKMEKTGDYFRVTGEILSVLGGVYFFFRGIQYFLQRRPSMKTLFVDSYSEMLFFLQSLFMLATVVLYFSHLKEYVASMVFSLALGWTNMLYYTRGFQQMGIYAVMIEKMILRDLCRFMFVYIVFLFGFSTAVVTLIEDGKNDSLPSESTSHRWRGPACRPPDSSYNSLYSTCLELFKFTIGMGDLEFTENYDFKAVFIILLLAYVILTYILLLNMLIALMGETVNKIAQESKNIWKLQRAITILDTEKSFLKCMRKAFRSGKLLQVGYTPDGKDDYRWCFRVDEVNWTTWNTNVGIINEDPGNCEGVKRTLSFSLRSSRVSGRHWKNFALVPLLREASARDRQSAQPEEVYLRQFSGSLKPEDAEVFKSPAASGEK
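Cells expressing TRPV1 were dye-loaded with Fluo-8 and read kinetically: 10 s baseline, 3 min after compound (agonist portion), then 2 min after EC20 capsaicin (allosteric enhancer portion). Calcium-bound dye fluorescence at 480/520 nm.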
gsp antag: qHTS for Antagonists of gsp, the Etiologic Mutation Responsible for Fibrous Dysplasia/McCune-Albright Syndrome: qHTS. gsp-mutant cells, cAMP HTRF, 30 min; control for the full effect not named in the record. Potency, µM (highest dose often 76.9 µM), for inactives: at the highest dose activity change, negative = inhibition, actives largely listed as inhibitors. 340,000 tested, 0.4% active. AID 624288, 2012; active = falling curve of any shape with a large fitted effect; inconclusive = falling curve, mostly with a smaller effect; inactive = flat or rising curve; cell line not stated here;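 further: intracellular cAMP measured with PDE inhibitor Ro 20-1724 present during compound exposure; potency means the concentration at half of the fitted maximal effect; on the % scale 0 is the no-effect control and ±100 the full control effect; nearly all actives have a fitted effect of over 65% in size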
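Measurement of cellular cAMP by homogeneous time-resolved fluorescence following a 30 min compound exposure at 37C. The PDE inhibitor […] was present throughout; the assay buffer was DPBS with 0.05% BSA and 0.005% Tween 20.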
ClpP mod: qHTS Assay for Activators of ClpP. AID 651965, 2013. Potency, µM (titrated, usually from 57.5 µM), for inactives: top-dose activity change, negative = active. ATP-dependent Clp protease proteolytic subunit (Bacillus subtilis (strain 168)), P80244. purified B. subtilis ClpP, FRET peptide cleavage, 20 min. 340,000 tested, 1.9% active; active = well fitted falling curve with a large enough effect; inconclusive = small, poorly fitted or top-dose-only effect; inactive = no such curve, though single readings can be large or run the other way; further: potency means the concentration at half of the fitted maximal effect; the source files actives as falling curves though it sought activators and does not explain the sign; nearly all actives have a fitted effect of over 65% in size; many hits overshoot -100%
Target sequence (P80244 whole entry, looked up): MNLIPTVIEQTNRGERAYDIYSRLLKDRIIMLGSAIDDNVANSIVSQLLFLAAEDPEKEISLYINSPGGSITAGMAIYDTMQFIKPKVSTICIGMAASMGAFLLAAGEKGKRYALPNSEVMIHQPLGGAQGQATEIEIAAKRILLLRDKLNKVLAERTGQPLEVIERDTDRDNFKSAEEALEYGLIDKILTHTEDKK
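Buffer: 100 mM Tris/HCl pH8, 100 mM KCl, 0.05% low protease BSA, 2.5% glycerol, 0.01% Tween-20. ClpP 10 microg/mL final; 20 min RT; delta FRET normalized to ADEP and DMSO controls.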
The depositor's hits bear a star; ? = inconclusive; nt = not tested or not shown; & = joins results of further samples; [ ] = remark or other dose.

SMILES	Menin-MLL FL inh	Sfp inh	TRPML1 inh	gsp agonist	TRPV1 potentiator	gsp antag	ClpP mod
CCc1nc2oc3cc(OC)ccc3c(=O)c2c(=O)n1-c1ccccc1	4.0	4%	0	-39%	-4	3%	-3.8%
CCCCn1c(N)c(N(CCOC)C(=O)C(C)N2C(=O)c3ccccc3C2=O)c(=O)[nH]c1=O (centres undefined)	nt	nt	-12	-11%	4	6%	-3.2%
Cc1ccc(NC(=O)N2CCCC2C(=O)NCc2cccs2)cc1 (centres undefined)	-2.5	17%	11	-3%	-11	0%	-0.8%
COC(=O)c1ccc(-c2nc(-c3cccs3)no2)cc1	2.8	13%	3	-4%	nt	-1%	0.6%
CC(C)N(Cc1nc(-c2ccc(Cl)cc2)no1)C(=O)CCC1CCCC1	-0.1	?	1	5%	?	-12%	-0.1%
CCOc1ccc(-c2nnc3ccc(SC)nn23)cc1	1.0	12%	-8	20%	nt	-11%	-3.1%
CC1=Nn2c(nc3sc4c(c3c2=O)CCCC4)SC1	-6.4	-10%	3	-1%[15.4 µM]	-19	12%	0.7%
CCCCCCCC(=O)N/N=C(\C)c1ccc(O)cc1O	3.9	11%	-11	15%	0	2%	16%
O=C(NCc1ccco1)c1sc(=S)n2c1[nH]c(=O)c1ccccc12	2.4	45µM*	18	-5%	24	?	-0.9%
CCC1CCCCN1C(=O)COC(=O)c1cccs1 (centres undefined)	nt	nt	1	5%	nt	2%	-0.8%
Cn1cccc1/C=N\NC(=O)Cc1ccc(Br)c2ccccc12	-3.7	14%	-6	-33%[inhibitor]	17	-19%	-2.8%
Cc1cccc(C(=O)c2cn[nH]c2-c2ccccc2O)c1	0.1	8%	11	-27%	23	12%	-1.1%
O=C(CN1CCCc2ccccc21)NC(=O)NC1CCCCC1	9.8	?	3	30%[15.4 µM]	-17	2%	nt
COc1ccc(CC(=O)NC(C)c2nnc(SCC(=O)Nc3nc(C)cs3)n2C)cc1 (centres undefined)	-0.8	13%	1	-19%	-22	5%	-1.8%
CSc1nc(NCCOCCO)c2sc3nc(-c4ccco4)c4c(c3c2n1)CCC4	14	35µM*	9	-43%[inhibitor]	1	2%	-15%
O=C(NCCc1ccccn1)c1cc(-c2ccccc2Cl)nc2ccccc12	2.5	4%	12	-14%	5	-5%	-5.9%
CCOC(=O)c1sc2nc(C)nc(SCC(=O)NC(C)CCc3ccccc3)c2c1C (centres undefined)	18	1%	4	17%	21	-2%	-24%
CC(=O)OCON[N+]([O-])=NC(C)C	-4.3	-1%	-23	nt	nt	nt	-2.7%
Cc1cc(NC(=O)c2ccccc2)ccc1NC(=O)Cc1ccccc1	0.1	22%	25	-3%[15.4 µM]	-23	-7%	-3.1%
O=C(CN1C(=O)NC2(CCCCC2)C1=O)N1CCN(S(=O)(=O)/C=C/c2ccccc2)CC1	nt	nt	-3	-48%[inhibitor]	8	8%	-0.8%
Cc1c(C(=O)N2CCN(C/C=C/c3ccccc3)CC2)oc2c(F)cccc12	nt	nt	69	-4%	0	-24%	-4.8%
O=C(Cc1nnc(NC(=O)Nc2ccccc2F)s1)NCc1ccccc1	8.6	4%	19	-7%[15.4 µM]	-18	4%	nt
Cc1cc(NC(=O)CN2CCCC(C)C2)n(-c2nc3ccccc3s2)n1 (centres undefined)	4.2	12%	13	19%[15.4 µM]	1	14%	18µM*
CCCCS(=O)(=O)N1CCCC(C(=O)NCC2CCCO2)C1 (centres undefined)	0.5	29%	8	15%[15.4 µM]	0	4%	-21%
O=C(c1ccc([N+](=O)[O-])cc1)N1CCN(Cc2ccccc2[N+](=O)[O-])CC1	-0.2	50µM*	65	3%	-9	1%	nt
CCS(=O)(=O)c1nnnn1-c1ccccc1S(C)(=O)=O	6.8	14%	4	4%	2	6%	0.4%
CCC(Sc1ccc2nnc(-c3ccc(F)cc3)n2n1)C(=O)O (centres undefined)	-1.8	2%	-1	?	nt	6%	?
COCCNC(=S)N/N=C/c1ccc(N2CCOCC2)cc1	-2.3	-27%	-5	11%	-10	-3%	nt
Nn1c(SCC(=O)NCCC2=CCCCC2)nnc1C(F)(F)F	5.0	19%	-17	-6%	0	10%	0.6%
O=C(CCn1c(=O)[nH]c2ccccc2c1=O)N1CC=C(c2ccccc2)CC1	1.2	13%	-8	-5%[15.4 µM]	-7	7%	nt
CCOC(=O)c1oc2ccccc2c1NC(=O)c1ccc(S(=O)(=O)N2CCCC2)cc1	-0.3	-2%	-2	13%	-10	6%	-28%
CC1CCN(S(=O)(=O)c2ccc3c(c2)C(=NO)c2cc(S(=O)(=O)N4CCC(C)CC4)ccc2-3)CC1	-0.1	20%	-2	-7%	0	7%	-28%
O=C(c1ccc(COc2c(F)c(F)cc(F)c2F)o1)N1CCN(c2ccc(Cl)cc2)CC1	-1.8	5%	-7	-38%	?	2%	-0.5%
CCCCn1c(NCc2cccs2)nc2ccccc21	-4.0	?	7	-11%	4	-2%	nt
Cc1cc(=O)n2nc(N3CCCC(C(=O)NCc4cccc(Cl)c4)C3)sc2n1 (centres undefined)	nt	8%	28	?	?	-2%	-2.0%
CC1CCN(CCCCOc2ccccc2Br)CC1	4.8	50µM*	44	-2%	5	11%	-1.9%
CC(=O)c1ccc(OCCCC(=O)OCC(=O)Nc2ccc3[nH]c(=O)[nH]c3c2)cc1	nt	nt	-1	-1%[15.4 µM]	9	-1%	nt
O=C(CCCCn1c(=O)[nH]c2ccsc2c1=O)NCc1cccnc1	-2.1	5%	-2	?	19	7%	-3.2%
CCC1=C(OC(=O)N(CC)CC)N2C(=O)OC(=NCC(=O)OC)[C@]2(Cc2ccccc2)[C@H]2C1=CC[C@H]1C(=O)N(c3ccccc3)C(=O)[C@H]12	-1.1&1.1	22%&3%	20	nt	-7	-19%	-0.5%
O=C(CCNS(=O)(=O)c1cccc2nonc12)NC1CCCc2ccccc21 (centres undefined)	-0.6	12%	2	-5%	-11	-13%	-1.1%
O=C1/C(=C\c2ccco2)SC(=S)N1C1CCCCC1	?	-13%	nt	nt	-4	nt	nt
N=c1sccn1CC(=O)Nc1ccc(S(N)(=O)=O)cc1	-1.2	7%	-5	-14%[15.4 µM]	7	11%	nt
O=C1COc2ccc(C(=O)NCc3ccco3)cc2N1	-5.2	-5%	0	-4%	-7	7%	-2.7%
Cc1c(Cl)sn(-c2ccc(Cl)cc2)c1=O	5.1	0.71µM*	-21	20%	-10	-24%	nt
O=c1[nH]c2ccc(NS(=O)(=O)c3ccc4ccccc4c3)cc2[nH]1	1.5	20%	1	8%	5	?	-0.3%
COCC(=O)NC1CC2CCC(C1)N2C(=S)Nc1ccccc1C(=O)OC (centres undefined)	-1.5	-8%	-12	9%[15.4 µM]	10	-8%	nt
COC(=O)[C@H](Cc1ccccc1)NC(=O)N1CCC(C)CC1	3.4	7%	-15	6%	-25	3%	-2.3%
CCCCn1c(N)c(N(CCOC)C(=O)c2ccc(N(C)S(=O)(=O)c3ccc(C)cc3)cc2)c(=O)[nH]c1=O	nt	nt	-12	17%[15.4 µM]	8	1%	nt
C=CCn1c(COc2ccc(F)cc2)nnc1SCC(=O)N1CC(=O)Nc2ccccc21	1.0	19%	10	8%	6	-12%	-0.4%
Cc1noc(C)c1CN1C(=O)c2ccccc2C1=O	nt	12%	0	12%	-4	-5%	1.8%

The list goes on:
SMILES	Menin-MLL FL inh	Sfp inh	TRPML1 inh	gsp agonist	TRPV1 potentiator	gsp antag	ClpP mod
CCC(O)C1CCN(C(=O)c2cc(COc3ccc4ncccc4c3)on2)CC1 (centres undefined)	3.1	15%	1	-22%	3	?	nt
COC(=O)c1c(C)oc2ccc(N(C(=O)c3ccncc3)S(=O)(=O)c3ccc(C)cc3C)cc12	-0.1	0%	7	-12%[15.4 µM]	-3	7%	-1.0%
CCNC(=O)CSc1ncnc2sccc12	1.7	-15%	28	12%	-17	6%	-9.9%
O=C(N/N=C/c1ccncc1)c1cc(-c2ccc(Br)s2)[nH]n1	-2.8	-8%	9	3%	-4	-20%	nt
C=CCc1cc(C)ccc1OCCOCCC(C(=O)OCC)C(=O)OCC	0.9	2%	3	18%[15.4 µM]	-5	1%	-29%
O=[N+]([O-])c1ccc(Oc2cccc3cccnc23)c(Cl)c1	-0.7	-17%	32	-8%[15.4 µM]	3	-4%	-2.0%
CCOC(=O)/C(C#N)=C/Nc1cc(C(C)(C)C)sc1C(C)=O	0.1	7%	-5	6%[15.4 µM]	3	-11%	nt
Cc1cc(NC(=O)CCC(=O)N(C2CC2)C(C(=O)NC(C)(C)C)c2ccccc2Cl)no1 (centres undefined)	2.3	13%	-1	-6%[15.4 µM]	8	6%	1.1%

Screening results as filed in PubChem BioAssay.
